# fixLJ activator = activators of Burkholderia fixLJ two-component system, primary screen, B. multivorans, GFP reporter | AID 1918990, 2023 | z-score (no concentration beside the values) | B. multivorans fixK-promoter GFP reporter, 18 h; stronger effect = higher value | 29,000 tested, 0.3% active;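 active means replicate mean overnight rise in green fluorescent reporter signal, 3 or more SD over negative controls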;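 further: score is relative to vehicle wells of the plate; 300 nL library stock went into each well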
# * marks the source's active call; other numbers are inactive results; & = joins results of further samples.
SMILES,fixLJ activator
C[C@H](NC(CCc1ccccc1)C(=O)O)C(=O)N1CCC[C@H]1C(=O)O (stereo partly drawn),-0.04
Cc1cc(OCC(=O)Nc2ccc(C(=O)OC3CCCCC3)cc2)cc(C)c1Cl,-0.73
Cc1cc(NC(=O)C2CCN(S(=O)(=O)c3c(C)noc3C)CC2)ccc1Br,-1.1
CCC(C)NC(=O)c1ccc2c(c1)N=C(C)c1cc(C)ccc1S2 (stereo not drawn),-1.4
COc1cccc(NC(=O)CSc2nc(C)c(Cc3ccccc3)c(=O)[nH]2)c1,-0.74
CCN1CCN(C(=O)NC(C(=O)N[C@@H]2C(=O)N3[C@@H]2SC(C)(C)[C@@H]3C(=O)O)c2ccccc2)C(=O)C1=O (stereo partly drawn),-5.4
CCOc1ccccc1-c1nnc(SCc2ccc(Cl)cc2)o1,2.4
CC1(C)SCC(C(=O)N2CCC(CCC(N)=O)CC2)NC1=O (stereo not drawn),-0.74
Cc1ccc(NC(=O)C(NS(=O)(=O)c2ccc3c(c2)CCC(=O)N3)c2ccccc2)cc1C (stereo not drawn),-2
C=CCOc1c(Cl)cc(C(=O)NCCNC(C)=O)cc1Cl,-0.81
COCC(=O)Nc1c(C(=O)Nc2ccc(C)cc2)oc2ccccc12,-1.2
CCN(Cc1noc(C)n1)C(=O)Nc1ccc(CCc2ccccn2)cc1,-3.7
CC(C)OCCCNC(=O)c1cn(C)c2ccc(S(=O)(=O)N3CCCCCC3)cc2c1=O,-0.1
COc1cc(-c2ccc(C(=O)NCC3(CO)CCOCC3)cc2)ccc1O,-1.2
COc1ccc(C2=NC3(CCCCCC3)N(CC(=O)Nc3cccc(Cl)c3)C2=O)cc1,-0.5

# Part of the list above, reformatted:
Cc1cc(NC(=O)C2CCN(S(=O)(=O)c3c(C)noc3C)CC2)ccc1Br
  fixLJ activator: -1.1
CC1(C)SCC(C(=O)N2CCC(CCC(N)=O)CC2)NC1=O (stereo not drawn)
  fixLJ activator: -0.74
CC(C)OCCCNC(=O)c1cn(C)c2ccc(S(=O)(=O)N3CCCCCC3)cc2c1=O
  fixLJ activator: -0.1

# Structures shown so far containing sulfur (eight):
SMILES,fixLJ activator
Cc1cc(NC(=O)C2CCN(S(=O)(=O)c3c(C)noc3C)CC2)ccc1Br,-1.1
CCC(C)NC(=O)c1ccc2c(c1)N=C(C)c1cc(C)ccc1S2 (stereo not drawn),-1.4
COc1cccc(NC(=O)CSc2nc(C)c(Cc3ccccc3)c(=O)[nH]2)c1,-0.74
CCN1CCN(C(=O)NC(C(=O)N[C@@H]2C(=O)N3[C@@H]2SC(C)(C)[C@@H]3C(=O)O)c2ccccc2)C(=O)C1=O (stereo partly drawn),-5.4
CCOc1ccccc1-c1nnc(SCc2ccc(Cl)cc2)o1,2.4
CC1(C)SCC(C(=O)N2CCC(CCC(N)=O)CC2)NC1=O (stereo not drawn),-0.74
Cc1ccc(NC(=O)C(NS(=O)(=O)c2ccc3c(c2)CCC(=O)N3)c2ccccc2)cc1C (stereo not drawn),-2
CC(C)OCCCNC(=O)c1cn(C)c2ccc(S(=O)(=O)N3CCCCCC3)cc2c1=O,-0.1

# Next compounds.
SMILES,fixLJ activator
CCSc1ncc(CN2CCOCC2CC(=O)NCC(F)(F)F)cn1 (stereo not drawn),-1.3
CCc1ccc(C(=O)c2cn(CC(=O)Nc3ccc4c(c3)OCO4)c3ccc(Cl)cc3c2=O)cc1,-1.5
CC(C)c1ccc(NC(=O)C2CCN(C(=O)c3ccc(F)cc3)CC2)cc1,-4.1
Cc1n[nH]c(C)c1S(=O)(=O)N1CCCC(C(=O)Nc2ccc(Br)cc2)C1 (stereo not drawn),1.8
CCc1cccc(C)c1Nc1c(-c2ccc(N(C)C)cc2)nc2ncccn12,0.15
CCOC(=O)c1cccc(NC(=O)CCc2nc3cccnc3n2-c2ccccc2)c1,0.22
CCOc1ccc(S(=O)(=O)N(CC(=O)Nc2cccnc2)c2ccccc2)cc1,-1.1
COc1ccccc1NC(=O)c1c(NC(=O)c2ccccc2F)sc2c1CCC2,-0.79
CCCOc1ccccc1-c1nc(SCC(=O)c2ccccc2)n[nH]1,-1.5
CCOc1cccc(-c2nc3ccccc3c(=O)o2)c1,-1.6
O=C(Nc1cccc(C(F)(F)F)c1)c1cc(-c2ccc(Cl)s2)nc2ccccc12,-0.18
CCCn1nc(NC(=O)c2cccc(Cl)c2)c2cc3cccc(C)c3nc21,-1.4
Cc1cnc(CN(C)C(=O)Nc2ccccc2CN2CCOCC2)[nH]1,-0.01
CC(CNC(=O)N(CCO)Cc1ccco1)c1ccc(Cl)cc1 (stereo not drawn),-1.4
O=C(CCC1N=C2c3ccccc3N=C(SCC(=O)Nc3ccccc3F)N2C1=O)NCc1cccs1 (stereo not drawn),0.24
Cn1nc(C2CCCN(Cc3ccncc3)C2)n(-c2ccccc2)c1=O (stereo not drawn),-1.8
COc1ccc(CNc2nc(-c3ccco3)nn2C(=O)CC(C)C)cc1,1.6
O=C(O)c1ccc(NC(=O)c2cc(S(=O)(=O)N3CCCCC3)c(Cl)cc2Cl)cc1,0.89
COc1cc2ncnc(Nc3ccc(F)c(Cl)c3)c2cc1OCCCN1CCOCC1,-2.2
CCOC(=O)C1CCCN(S(=O)(=O)c2cc(Br)cc3c2N(C(C)=O)CC3)C1 (stereo not drawn),-1.9
COc1cccc(Nc2nc(-c3ccccc3)c3cc(C)ccc3n2)c1,2.1
CCOC(=O)N1CCc2c(sc3c2c(=O)n(Cc2ccccc2)c(=O)n3Cc2cccc(Cl)c2)C1,-0.06
CC(C)c1ccc(C2Sc3ccccc3NC3=C2C(=O)c2ccccc23)cc1 (stereo not drawn),2.6
CCc1ccc(-n2c(=O)c3c4c(sc3n(CC(=O)N3CCCCC3CC)c2=O)CCC4)cc1 (stereo not drawn),-2.5
COc1ccc(C(=O)c2cn(CC(=O)Nc3ccc4c(c3)OCCO4)c3ccc(OC)cc3c2=O)cc1,-0.1
COc1ccc(CNc2nc(-c3ccc(OC)cc3)cc(C(F)(F)F)n2)cc1,-2
CCOC(=O)c1c(NC(=O)c2cc(=O)c3c(C)cc(C)cc3o2)sc(C(C)=O)c1C,-1.4
O=C(O)C1CCC(C(=O)N2CCC(Cn3ccnc3)CC2)C1 (stereo not drawn),0.6
CCCC(=O)O[C@]1(C(=O)CO)CCC2[C@@H]3CCC4=CC(=O)CC[C@]4(C)C3[C@@H](O)C[C@@]21C (stereo partly drawn),-2.6
CC(C)c1ccc(NC(=O)c2cn(C3CCCCC3)c(=O)c3c2c2ccccc2n3C)cc1,-1.8
CCOC(=O)c1ccc(NC(=O)c2cc(=O)c3cc(CC)ccc3o2)cc1,-1.3
CCCCCn1c(CCNC(=O)c2ccc(F)cc2)nc2ccccc21,-0.62
COCCCNC(=O)Cn1c(=O)n(CCCC(=O)NCc2ccc(C)cc2)c(=O)c2ccccc21,0
Cc1ccc(C(=O)CC2(O)C(=O)N(Cc3ccccc3F)c3ccccc32)cc1 (stereo not drawn),-2.3
Cc1ccc(CNC(=O)C2CCN(S(=O)(=O)c3ccc4nc5c(c(C(=O)O)c4c3)CC(C)CC5)CC2)cc1 (stereo not drawn),0.9
Cc1cc(C)n2nc(CNS(=O)(=O)c3cccc(Cl)c3)nc2n1,-0.05
Cc1cc(C)c2c(CC(=O)Nc3ccc(S(=O)(=O)N4CCCC(C)C4)cc3)coc2c1 (stereo not drawn),-1.5
COc1cc(NC(=O)NCC2CCN(Cc3ccccc3Cl)CC2)cc(OC)c1OC,0.02
CNC(=O)CC1CCN(c2cc(C)nc3c(C)c(C)nn23)CC1,0.81
COc1cc(C2c3c(-c4cc(C)ccc4O)n[nH]c3C(=O)N2Cc2cccnc2)cc(OC)c1OC (stereo not drawn),-2.9
COc1ccc(C2CC(=O)c3c([nH]c(C(=O)OC4CCCC4)c3C)C2)cc1OC (stereo not drawn),-1.5
Cc1c(C(=O)N(Cc2ccccc2F)C2CCS(=O)(=O)C2)oc2ccccc12 (stereo not drawn),-0.51
COc1cccc(NC(=O)Cn2c(=O)n(Cc3ccccc3)c(=O)c3ccccc32)c1,-1.1
CC(C)(Oc1ccc2c(c1)CCC2)C(=O)NC1CCOCC1C1CCOCC1 (stereo not drawn),-1.5
O=C(Nc1nonc1-c1ccc(Cl)cc1)c1ccccc1F,0.41
COc1ccc(CNC(=O)C(=O)Nc2ccccc2OC)cc1,-1.6
COc1ccc(NC(=O)CSc2nc(-c3ccc(OC)cc3)[nH]c2-c2ccc(F)cc2)cc1,1.2
CCOc1ccc(S(=O)(=O)NC(c2cnn(C)c2)C2CC(O)C2)cc1C (stereo not drawn),-3.3
Cc1ccc(-c2nnc(Nc3cccc(Cl)c3)c3ccccc23)cc1S(=O)(=O)NCC1CCCO1 (stereo not drawn),0.2
O=C(COc1ccc(F)cc1)Nc1ccc(NC(=O)CN2CCCCC2)cc1,-0.19
COc1ccc(CNC(=O)CCc2c(C)c3ccc(OC)c(C)c3oc2=O)cc1OC,-2.2
CCC(=O)NC(C)C(=O)N1CCC2(CC1)OCCc1c2[nH]c2ccccc12 (stereo not drawn),-0.37
Cc1ccc(C(=O)N(C)CCC(C)(C)O)cc1N1CCNC1=O,-0.94
Cc1coc2cc3oc(=O)c(CC(=O)NCCc4ccccc4)c(C)c3cc12,-2.1
Cc1ccc(Cn2c(CN3CCN(c4cccc(Cl)c4)CC3)nc3c2c(=O)n(C)c(=O)n3C)cc1,0.24
CC(C)c1ccc(/C=C(\C#N)c2nc(-c3cc4ccccc4oc3=O)cs2)cc1,1
Cc1nc(C(C)C)sc1C(=O)N1CC(O)C(Cc2ccccn2)C1 (stereo not drawn),-0.51
N#Cc1c(N)nc2c(c1-c1c(F)ccc(F)c1Cl)C1CCC(C2)N1 (stereo not drawn),0.23
CCOc1cc(-c2cc(C(=O)O)c3c(-c4ccccc4)[nH]nc3n2)ccc1O,-1.4
CCOCCCNC(=O)C(c1ccc(Cl)cc1)N(Cc1cccs1)C(=O)c1ccc(NC(C)=O)cc1 (stereo not drawn),-2.4

# The last 2 entries of the section before come first, to join the parts.
SMILES,fixLJ activator
CCOc1cc(-c2cc(C(=O)O)c3c(-c4ccccc4)[nH]nc3n2)ccc1O,-1.4
CCOCCCNC(=O)C(c1ccc(Cl)cc1)N(Cc1cccs1)C(=O)c1ccc(NC(C)=O)cc1 (stereo not drawn),-2.4
CCc1nc(C)c(C(=O)Nc2onc(C)c2-c2ccccc2)o1,-1.2
CSc1nn(CC(=O)Nc2ccc(C)cc2C)c(N)c1S(=O)(=O)c1ccc(Cl)cc1,-1.4
CCC(=O)N1CCc2cc(S(=O)(=O)NCCC(=O)NCc3ccc(OC)cc3)ccc21,-0.65
Cc1cc(C)c2c(=O)cc(C(=O)Nc3ccccc3Cl)oc2c1,-1.3
O=C(COCc1nc2ccccc2[nH]1)NCc1ccc(-c2ncon2)cc1,0.74
CCN(CC)CCCC(C)Nc1c2ccc(Cl)cc2nc2ccc(OC)cc12 (stereo not drawn),-4.8&-9.2
COc1cccc(NC(=O)CCNS(=O)(=O)c2ccc3c(c2)oc(=O)n3C)c1,-0.15
CCOC(=O)c1c(-c2ccc(C)cc2)csc1NC(=O)c1ccc(C(C)(C)C)cc1,-0.53
Cc1cc(NC(=O)Cn2c(=O)nc(-c3ccccc3F)c3cc(Cl)ccc32)ccc1Br,0.51
COC1CCC[C@]12CCCN(S(=O)(=O)c1ccc3c(c1)CCCN3C(C)=O)C2 (stereo partly drawn),0.09
CN(Cc1ccc2nsnc2c1)C(=O)NC1(C)CCS(=O)(=O)C1 (stereo not drawn),0.61
CS(=O)(=O)CCC(=O)NCCNS(=O)(=O)c1ccc(Cl)cc1,-0.24
CN1C(=O)CC(C(=O)NCCc2nc(-c3cccnc3)n[nH]2)c2ccccc21 (stereo not drawn),-1.1
Cc1ccc(-n2c(CCC(=O)O)ccc2-c2cccs2)cc1C,0.6
O=C(NC1C2CCC1CN(C(=O)CCCn1cncn1)C2)C1CCCO1 (stereo not drawn),-1.2
COc1ccc(-c2nnc(C)o2)cc1NC(=O)N1CCCCCCC1,0.11
CCc1ccc(NC(=O)CN2C(=O)CC(c3ccccc3)Sc3ccccc32)cc1 (stereo not drawn),-1.2
Cc1cnn(Cc2ccccc2Cl)c1NC(=O)NCCc1c(C)n[nH]c1C,-0.6
O=C(CCCCn1c(=O)c2ccccc2n(Cc2ccc(F)cc2Cl)c1=O)NCCc1ccc(Cl)cc1,0.98
CSCc1ccc(N2CCC(NC(=O)c3cnccn3)C(O)C2)nc1 (stereo not drawn),-1.5
Cc1ccc(C(=O)N2CCC(C(O)c3cccs3)CC2)cc1N1CCNC1=O (stereo not drawn),-0.97
O=C(c1cc(-c2ccccc2)n[nH]1)N1CC2CCC(C1)N(CC1CCC1)C2 (stereo not drawn),-0.52
Cc1nccn1CC1CCN(c2cc(C3CC(N)C3)ncn2)CC1 (stereo not drawn),-0.01
CN(C)CCCn1ccnc1C1CCCN(C(=O)NCc2ccccc2F)C1 (stereo not drawn),-0.65
CCOC(=O)c1ccc(NC(=O)CSc2nc3cc4ccccc4cc3[nH]2)cc1,-0.55
CC(=O)N=c1sc(S(N)(=O)=O)nn1C,-0.92
CCc1ccc2c(c1)c(=O)c(S(=O)(=O)c1ccc(F)cc1)cn2CC(=O)Nc1ccc(C)cc1C,-2.6
CC1=C(C(=O)Nc2cc(Cl)ccc2C)C2(CCCCC2)OC1=O,-1.1
CCN(CC)C(=O)Cn1nnc2sc(-c3ccccc3)cc2c1=O,0.58
COc1ccccc1CC(=O)Nc1ccc2nc(N3CCC(C)CC3)cc(C)c2c1,0.26
Cc1cc(=O)oc2cc(OCC(=O)Nc3ccc(O)c(C(=O)O)c3)ccc12,0.04
Cc1cccc(C)c1NC(=O)Cn1c(=O)n(CCCS(=O)(=O)C2CCCCC2)c(=O)c2ccccc21,0.45
CCCCc1ccc(-n2nc3cc(C)c(NC(=O)c4ccc(C#N)cc4F)cc3n2)cc1,-2.8
COc1ccc2c(c1)CCc1c(C(=O)Nc3c(C)nn(Cc4ccc(Cl)c(Cl)c4)c3C)noc1-2,0.67
Cc1ccccc1Nc1nnc(-c2ccc(C)c(S(=O)(=O)N3CCOCC3)c2)c2ccccc12,-0.36
Cn1cc(-c2cc3n(n2)CCC(=O)N3CC(=O)O)c2ccccc21,-0.6

# Screening data (PubChem)

# A portion of the library. The share of hits here may be higher or lower than overall.
